UCH37 inh – inhibitors of human UCH37 deubiquitinase, primary screen, biochemical, Ub-AMC cleavage, fluorescence. inhibition, % (test concentration not listed). 0.33% of 330,000 active. purified proteasome/UCH37. Ubiquitin carboxyl-terminal hydrolase isozyme L5 (Homo sapiens), Q9Y5K5;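 active = mean of two replicates above 20%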;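 note: 0% = compound-free wells with enzyme and 100% = wells lacking proteasome; stock transfer was 100 nL into about 20 µL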
Target sequence (Q9Y5K5 whole entry, looked up): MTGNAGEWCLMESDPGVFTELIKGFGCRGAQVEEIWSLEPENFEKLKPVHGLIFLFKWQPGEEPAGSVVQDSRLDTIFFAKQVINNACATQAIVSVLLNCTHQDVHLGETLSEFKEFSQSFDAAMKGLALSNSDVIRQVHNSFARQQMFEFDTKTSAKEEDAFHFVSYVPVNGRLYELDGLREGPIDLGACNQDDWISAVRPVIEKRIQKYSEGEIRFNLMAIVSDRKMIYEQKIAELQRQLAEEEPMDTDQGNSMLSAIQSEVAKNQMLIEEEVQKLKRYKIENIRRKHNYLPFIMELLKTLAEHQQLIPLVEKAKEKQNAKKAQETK
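Signal – fluorescence, ex 355 nm, em 460 nm · System – Proteasome-bound UCH37 · Input – 0.15 nM proteasome as dispensed · Timing – 30 min preincubation with enzyme, 25 min cleavage at room temperature · Read-out basis – percent inhibition of cleavage signal versus uninhibited and no-proteasome wells · Medium – Tris-HCl pH 7.4 with ATP-MgCl2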
B2AR ag – beta2AR agonists driving receptor internalization, primary screen, cell-based, FAP fluorogen, flow cytometry; Beta-2 adrenergic receptor (Homo sapiens), P07550; Am2.2-beta2AR cells; reference of the scale not given here; response, % (no concentration beside the values); 0.43% of 340,000 active;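 active = response above a set limit, near 3 SD of response in nonfluorescent compounds, cut at about 42% in these data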;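 note: stock transfer was 100 nL into about 11 µL; a reference agonist was the positive control; negative values mostly stem from fluorescent compounds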
HNF4A DNA FP – change in binding of human HNF4A to DNA, primary screen, biochemical, fluorescence polarization, FITC-DNA. Hepatocyte nuclear factor 4-alpha (Homo sapiens), P41235. 1 h. activity change, % at 10 µM. 0.3% of 360,000 active. AID 1224865, 2016; in the data active = activity change above about 30%, passing the limit was not always enough;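 note: controls were the assay level and a saturating level of protein; the project sought stronger binding though the title names inhibitors; some compounds called inactive have numbers as strong as hits; positive values seem to mean higher polarization but the record does not say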
Ecoli rRNA inh – reduced GFP signal of wild-type E. coli, primary screen, bacterial rRNA inhibitor project, GFP/RFP fluorescence, OD600, single point. E. coli WT GFP vs humanized-ribosome RFP mutants, 24 h; hits give low values; DMSO median 0, no signal -100. GFP signal change (wild-type ribosome), % (test concentration not listed). 1.6% of 350,000 active;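 active = significant combined selectivity score with lowered wild-type GFP, culture density cut under 30%, mutant RFP and density less affected; inactive = any of these conditions unmet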; note: one replicate is shown; some compounds called inactive have numbers as strong as hits
E coli growth – E. coli growth inhibition, primary screen, OD600 | 0.21% of 330,000 active | Escherichia coli growth, 23 h; hits give low values | OD600 absorbance (test concentration not listed);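 active = OD600 absorbance below the run mean of sample wells minus 3.6 SD, in any replicate, cut at about 0.56 in these data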;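 note: stock transfer was 300 nL into about 60 µL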
ALR inh – inhibitors of human ALR sulfhydryl oxidase, primary screen, biochemical, H2O2 detection, HRP-luminol luminescence, single point | FAD-linked sulfhydryl oxidase ALR (Homo sapiens), P55789 | purified ALR, DTT oxidation | inhibition, % (concentration not given with the values) | 3.8% of 290,000 active | AID 485317, 2010;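 active = mean and each replicate at 75% or more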;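 note: stock transfer was 7.5 nL into about 7.5 µL; 0% = neutral wells and 100% = wells with inactivated enzyme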
Target sequence (P55789 whole entry, looked up): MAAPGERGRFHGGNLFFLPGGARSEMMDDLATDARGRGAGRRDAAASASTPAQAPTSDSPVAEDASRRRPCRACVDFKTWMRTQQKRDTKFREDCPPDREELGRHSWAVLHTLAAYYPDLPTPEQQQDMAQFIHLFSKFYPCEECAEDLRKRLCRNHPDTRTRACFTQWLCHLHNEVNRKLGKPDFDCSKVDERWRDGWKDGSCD
FGF22 binding – binders of human FGF22 protein, primary screen, FGF22 synaptogenesis inhibitor project, biophysical, thermal shift, single point. recombinant FGF22 thermal shift, SYPRO orange fluorescence; percent of sucrose octasulfate shift, DMSO zero. calls only at 9.99 µM. Fibroblast growth factor 22 (Homo sapiens), Q9HCT0. AID 651658, 2012. 1.5% of 340,000 active;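 active = melting point raised past a set limit in the mean and every replicate; three in four hits are not shown here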
Target sequence (Q9HCT0 whole entry, looked up): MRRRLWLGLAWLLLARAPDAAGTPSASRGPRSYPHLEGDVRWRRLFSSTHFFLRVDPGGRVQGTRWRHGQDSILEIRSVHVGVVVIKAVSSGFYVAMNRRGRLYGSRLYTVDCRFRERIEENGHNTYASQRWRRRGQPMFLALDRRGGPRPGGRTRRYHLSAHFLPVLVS
Ecoli rRNA inh OD600 – second read-out of Ecoli rRNA inh, no call of its own (marks repeat the call); OD600 change, %; measured here: OD600 growth;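 optical density of the mix in the first replicate; 0 = DMSO median and -100 = no signal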
Ecoli rRNA inh RFP – further read-out of Ecoli rRNA inh, marked with its call; RFP signal change, %; measured here: RFP humanized mutant strains;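 first replicate; 0 = DMSO median and -100 = no signal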
* marks the source's active call; other numbers are inactive results; i = inactive; . = not tested or not shown. Only part of the results is shown; rates above refer to the full screens.

SMILES	UCH37 inh	B2AR ag	HNF4A DNA FP	Ecoli rRNA inh	Ecoli rRNA inh OD600	Ecoli rRNA inh RFP	E coli growth	ALR inh	FGF22 binding
OC(c1ccc(F)c(F)c1)c1nc(-c2cncnc2)cs1 (stereo not drawn)	.	.	2.2	1	12	-3.1	.	.	i
CCN1CCN(c2ccc(S(=O)(=O)N3CCOCC3)cc2NC(=O)c2ccccc2SC)CC1	3.5	-6	-2.9	4	9	-0.5	0.7	-7	i
CN(C)c1ccc(C(=O)NCc2ccc3c(c2)OCO3)cc1	2.6	7	-1.4	-1	-16	-8.1	0.6	13	i
C=CCN(c1ccc(C(=O)NC(C)C)cc1)S(C)(=O)=O	-1.6	14	4.5	.	.	.	0.71	.	.
CN1CCN(C(=O)Nc2cccc3ccccc23)CC1	0.9	-1	-2.9	-4	4	-3.4	0.67	-8	i
CC(=O)N1CCN(S(=O)(=O)c2ccc(C)cc2)C1C(C)C (stereo not drawn)	2.2	-7	0.1	.	.	.	0.73	6	.
CC(C)(C)c1ccc(C(O)c2ncc(-c3ccccc3Cl)[nH]2)cc1 (stereo not drawn)	.	.	-2.6	-47	-65	-13	.	.	i
CCOc1ccc(CNS(=O)(=O)c2cc(-c3cc(C)no3)ccc2OC)cc1OC	1.4	3	1.4	-5	-10	-4.6	0.67	1	i
CCn1c2ccccc2c2cc(NC(=O)COC(=O)c3cc(S(N)(=O)=O)c(Cl)cc3Cl)ccc21	1.9	7	-0.6	0	0	14	0.71	-5	i
CC(=O)Nc1ccc(S(=O)(=O)N2CCN(S(=O)(=O)c3ccc(NC(C)=O)cc3)CC2)cc1	2.5	-3	-2.9	-2	3	0.6	0.66	-14	i
COc1cc(SC)ccc1C(=O)Nc1nc(C)cs1	-14	-4	25	8	10	0.8	0.68	.	i
CC(C)CCNC(=O)CNC(=S)N(CCCN1CCOCC1)Cc1cccs1	1.0	-3	2.5	.	.	.	0.64	-1	.
CC(NS(=O)(=O)c1ccc2c(c1)CC(=O)N2C)c1ccccc1 (stereo not drawn)	6.2	-1	0.6	5	5	0.0	0.66	8	i
CC(=O)c1nn(-c2ccc(Cl)cc2)cc1C(=O)c1ccccc1	1.4	-4	-1.3	-6	-6	-2.2	0.68	0	i
CC(C)c1nc(CNC(=O)CCc2nnc(-c3ccsc3)o2)cs1	0.0	-7	2.6	-13	-9	1.4	0.62	8	i
CCCCn1c(SCC(=O)c2ccc(O)cc2O)nc2cc(S(N)(=O)=O)ccc21	6.5	-2	0.1	-7	-28	5.4	0.68	17	i
Cc1nn(S(=O)(=O)c2ccc(F)cc2)c(C)c1S(=O)(=O)N1CCCCC1	4.0	-1	4.2	9	-2	1.1	0.69	1	i
COc1ccc(C(=O)NCCc2nnc3ccc(SCC(=O)Nc4ccccc4F)nn23)cc1	0.9	-3	2.0	3	1	5.0	0.66	24	i
CC(=O)Nc1ccc(C(=O)N2CCCCC2c2cc(C(=O)N3CCOCC3)no2)cc1 (stereo not drawn)	.	.	0.8	10	12	0.3	.	.	i
CCC(C)NC(=O)COC(=O)Cc1sc(N)nc1-c1ccc(C)cc1 (stereo not drawn)	5.9	6	-1.2	-2	-2	0.6	0.73	21	i
O=C(Nc1ccc(S(=O)(=O)NCc2ccco2)cc1)C1CCCCC1	3.0	2	4.3	-7	-14	-2.3	0.68	.	i
Cc1ccccc1Cn1cc(NC(=O)c2nc3ncccn3n2)cn1	2.5	-7	2.2	.	.	.	0.67	1	.
C/C(=N\NC(=O)CCC(=O)O)c1c(-c2ccccc2)c2cc(Br)ccc2[nH]c1=O	.	6	-0.4	6	-1	1.7	.	.	i
CCN1C(=O)[C@H]2[C@@H](c3ccc(SC4CCCCC4)cc3)N[C@@](CC(C)C)(C(=O)OC)[C@H]2C1=O	1.0	1	-1.0	5	-3	-1.3	.	-2	i
COc1ccc(CNC(=O)C2CCN(S(=O)(=O)c3ccc(N4CCCC4=O)cc3)CC2)cc1	.	.	4.0	7	12	-1.3	.	.	i
CCOC(=O)[C@@H]1[C@H]2COc3ccc(Br)cc3[C@@H]2N2C(=O)N(c3cccc(F)c3)C(=O)[C@@]12C	0.4	4	1.1	3	-11	-2.5	.	-6	i
COc1ccc(/C=C/C(=O)Nc2cc(F)ccc2C)cc1S(=O)(=O)N1CCOCC1	4.4	0	-0.5	-4	-2	4.0	0.68	0	i
O=C(O)CCCNS(=O)(=O)c1ccc(Br)s1	1.4	5	0.0	2	4	-2.3	0.7	-7	i
Cc1ccc2nc(-c3cccc(S(=O)(=O)N(C)C)c3)cn2c1	3.7	-14	-0.6	.	.	.	0.69	99*	.
CCn1nc(NS(=O)(=O)c2ccccc2[N+](=O)[O-])c2cc3cccc(C)c3nc21	5.9	5	1.4	-4	-35	-1.7	0.69	92*	i
Fc1ccc(N2CCN(c3ccc4c(C(F)(F)F)cc(C(F)(F)F)nc4n3)CC2)cc1	4.0	-7	4.4	.	.	.	0.74	0	.
CCN1C[C@@H]2[C@@H]3C(=O)N(Cc4ccccc4)C(=O)[C@@H]3[C@](C)(C1=O)N2C(=O)c1ccc(C)cc1	5.5	-2	3.5	1	3	6.3	.	.	i
O=C(NC(=S)Nc1ccc2c(c1)OCO2)c1ccc(Cl)cc1	1.1	-3	1.3	.	.	.	0.71	.	.
O=C(NCc1nc(-c2ccccc2)no1)c1cccs1	3.5	-5	-0.4	-14	-10	-1.0	0.63	1	.
COc1ccc(NC(=O)CCS(=O)(=O)c2ccc3nc(C)sc3c2)cc1OC	0.3	-5	3.2	-3	9	-1.7	0.69	-30	i
O=C(NNC(=O)c1cccnc1)Nc1cccc2ccccc12	3.6	-6	0.2	.	.	.	0.72	-16	.
C/C(=N\NC(=O)c1ccc(N2CCCC2=O)cc1)c1ccncc1	.	-13	-2.8	7	11	-1.3	.	-4	i
CC1=CC(c2ccccc2)NC(=S)N1 (stereo not drawn)	3.6	1	0.1	.	.	.	0.72	-6	.
C/C(=N\N1CCN(C2c3ccccc3-c3ccccc32)CC1)c1cccnc1	.	-1	-3.1	.	.	.	.	-20	.
C/C(=N\NC(=O)c1c(Cl)c(C)nn1C)c1cccc(NC(=O)COc2ccc(Cl)cc2)c1	.	12	0.4	.	.	.	.	-6	.
Cc1nnc(SCC(=O)N2CCOCC2)n1C	-2.6	6	0.3	.	.	.	0.71	0	.
CC1=C(C(N)=O)C(c2ccccc2F)n2nc(CCCO)nc2N1 (stereo not drawn)	3.3	1	-4.0	13	9	6.1	0.63	5	.
COc1ccccc1CNC(=O)c1cc2c(=O)[nH]c3ccccc3c2n1C	-14	.	.	-6	-1	0.0	0.67	-6	.
COc1ccccc1NC(=O)C1CCN(C(=O)C2CC(=O)N(c3ccc(C)cc3)C2)CC1 (stereo not drawn)	-1.1	-11	-1.0	2	-1	0.1	0.7	4	i
Cc1ncc([N+](=O)[O-])n1CCN1C(=O)c2ccccc2C1=O	4.7	-1	4.2	13	24	7.4	0.66	-3	.
CCN(CC(=O)NCc1cccs1)C(=O)c1ccc(S(=O)(=O)Nc2ccccc2OC)cc1	4.1	-5	-3.9	0	-11	1.1	0.7	.	i
COC(=O)C1=CN(c2ccc(N3CCOCC3)cc2)C(N)=C(C#N)C1c1cccc(F)c1 (stereo not drawn)	.	.	3.5	-6	-10	4.3	.	.	i
CCOC(=O)N(NC(=O)C(O)(C(C)C)C(C)C)c1ccccc1	2.8	-4	-3.3	7	13	0.0	0.69	-22	i
CCn1nc(C)cc1C(=O)Sc1ccc(C)cc1	6.2	2	-0.5	-7	0	-1.3	0.67	98*	i
NS(=O)(=O)c1cccc(NC(=O)CCN2C(=O)C3CCCCC3C2=O)c1 (stereo not drawn)	1.4	-7	-0.6	24	14	2.5	0.66	.	i
N#Cc1c(NC(=O)CN2CCN(C(=O)c3ccco3)CC2)sc2c1CCCCC2	4.8	-7	2.1	0	1	1.0	0.69	7	.
CCc1ccccc1NC(=O)c1cccs1	4.2	4	-0.7	.	.	.	0.66	-11	.
CCCC(C(=O)NCC1CCCO1)N(Cc1ccccc1)C(=O)CNS(=O)(=O)c1ccccc1 (stereo not drawn)	1.8	3	-0.8	1	-7	3.0	0.7	1	i
O=C(Oc1cccc(C(=S)N2CCOCC2)c1)c1cc([N+](=O)[O-])cc([N+](=O)[O-])c1	4.0	-1	3.6	8	3	-1.5	0.7	-61	i
O=C(c1ccc(CNS(=O)(=O)c2ccc(Br)cc2)cc1)N1CCCC1	3.2	0	-5.3	-16	-14	2.2	0.67	-1	i
COc1cccc(-c2cc(C(=O)NC3CCCC3)no2)c1	1.3	6	-1.4	.	.	.	0.64	-4	.
COC(=O)C1=C(C)N(CCc2c[nH]c3ccccc23)C(=O)C1	0.7	5	0.9	7	21	-0.2	0.69	7	.
Cc1ccc(NC(=O)COc2ccccc2C(=O)NCCc2ccccc2)cc1	4.2	-5	-1.4	-1	11	0.3	0.69	3	i
O=S(=O)(NCCc1ccccn1)c1cc(Cl)cc(Cl)c1O	3.4	-2	-0.5	-3	-29	-11	0.66	.	i
C=CCn1c(SCc2c(C)noc2C)nc2sc3c(c2c1=O)CCC(C)C3 (stereo not drawn)	4.0	-6	-1.0	.	.	.	0.7	-5	.

By substructure, those above containing bromine (four)
SMILES	UCH37 inh	B2AR ag	HNF4A DNA FP	Ecoli rRNA inh	Ecoli rRNA inh OD600	Ecoli rRNA inh RFP	E coli growth	ALR inh	FGF22 binding
C/C(=N\NC(=O)CCC(=O)O)c1c(-c2ccccc2)c2cc(Br)ccc2[nH]c1=O	.	6	-0.4	6	-1	1.7	.	.	i
CCOC(=O)[C@@H]1[C@H]2COc3ccc(Br)cc3[C@@H]2N2C(=O)N(c3cccc(F)c3)C(=O)[C@@]12C	0.4	4	1.1	3	-11	-2.5	.	-6	i
O=C(O)CCCNS(=O)(=O)c1ccc(Br)s1	1.4	5	0.0	2	4	-2.3	0.7	-7	i
O=C(c1ccc(CNS(=O)(=O)c2ccc(Br)cc2)cc1)N1CCCC1	3.2	0	-5.3	-16	-14	2.2	0.67	-1	i

Additional results follow:
SMILES	UCH37 inh	B2AR ag	HNF4A DNA FP	Ecoli rRNA inh	Ecoli rRNA inh OD600	Ecoli rRNA inh RFP	E coli growth	ALR inh	FGF22 binding
O=C(/C=C/c1ccccc1[N+](=O)[O-])NCc1ccc(Cl)cc1	2.4	-1	4.4	2	3	-1.3	0.73	-2	i
CCOC(=O)C(CCSC)NC(=O)CN (stereo not drawn)	2.2	8	-0.2	21	16	1.4	0.68	-13	.
Cc1ccc(-n2c(-c3ccc(Cl)cc3)n[nH]c2=S)c(C)c1	3.4	3	-0.2	-26	-45	-6.0	0.67	87*	i
CCN(CC)c1ccc(NC(=O)Cn2c(C(C)NC(=O)c3ccc(C)cc3)nc3ccccc32)cc1 (stereo not drawn)	4.0	29	1.3	-3	1	1.4	0.7	.	i
O=C(Nc1ccc(C(=O)N2CCCC2)cc1)C1CCCCC1	.	4	1.6	24	17	5.9	.	.	i

Just HNF4A DNA FP, ALR inh and B2AR ag, for 2 of the compounds above:
SMILES	HNF4A DNA FP	ALR inh	B2AR ag
O=C(/C=C/c1ccccc1[N+](=O)[O-])NCc1ccc(Cl)cc1	4.4	-2	-1
CCOC(=O)C(CCSC)NC(=O)CN (stereo not drawn)	-0.2	-13	8
